Compound activity (PubChem)
E coli growth – blocks Escherichia coli growth; OD600 absorbance (test concentration not listed); hit rate 0.21% among 330,000; AID 1053175; OD600, 23 h; stronger effect = lower value;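 active = OD600 absorbance below the run mean of sample wells minus 3.6 SD, in any replicate, cut at about 0.56 in these data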;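 also: stock transfer was 300 nL into about 60 µL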
Beta apoptosis – blocks beta cell apoptosis | INS-1E cytokine-induced death, ATP luminescence, 48 h; percent of positive-control rescue, neutral wells zero | protection from apoptosis, % (test concentration not listed) | hit rate 0.8% among 300,000;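 active = all replicates at 75% or more, or half of them and the mean; inconclusive = half reach 75% but not the mean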;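 also: 0% = cytokine-treated negative control wells and 100% = positive control rescue; higher means more ATP so stronger rescue from cytokine killing; wells of about 40 µL received 100 nL stock; the first replicate is given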
MLL AF4-AF9 inh – blocks AF4 peptide binding to human AF9; AlphaScreen, biotin-AF4 peptide binding to FLAG-AF9; hit rate 0.47% among 350,000; inhibition, % at 10 µM;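 active = every replicate reaching a set inhibition limit, whatever the replicate mean, cut at about 25% in these data; inconclusive = mean inhibition reaches that limit but some replicates miss it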;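 also: 0% = plate neutral control median and 100% = total signal loss; the record names both 10 and 1 µM as test concentration; the first replicate is given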
Target sequence (P42568 whole entry, looked up): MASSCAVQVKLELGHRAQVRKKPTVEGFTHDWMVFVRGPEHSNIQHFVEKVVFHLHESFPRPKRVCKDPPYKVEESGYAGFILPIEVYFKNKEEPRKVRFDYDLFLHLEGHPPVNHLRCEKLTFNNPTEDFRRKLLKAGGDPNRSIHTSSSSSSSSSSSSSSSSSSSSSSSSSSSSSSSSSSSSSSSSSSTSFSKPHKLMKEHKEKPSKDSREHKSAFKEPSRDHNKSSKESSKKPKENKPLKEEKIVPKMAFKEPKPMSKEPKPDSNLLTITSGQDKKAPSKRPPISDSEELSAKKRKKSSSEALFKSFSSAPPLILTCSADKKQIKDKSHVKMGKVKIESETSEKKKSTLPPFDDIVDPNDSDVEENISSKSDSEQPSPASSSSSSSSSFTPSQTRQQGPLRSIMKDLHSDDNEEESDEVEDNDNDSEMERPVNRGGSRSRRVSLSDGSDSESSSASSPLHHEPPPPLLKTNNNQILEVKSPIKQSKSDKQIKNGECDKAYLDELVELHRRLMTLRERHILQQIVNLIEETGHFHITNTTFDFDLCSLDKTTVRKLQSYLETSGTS
UCH37 DUB inh – human UCH37 deubiquitinating enzyme inhibition | Q9Y5K5 | purified proteasome/UCH37, Ub-AMC cleavage fluorescence | inhibition, % (test concentration not listed) | hit rate 0.33% among 330,000;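 active = mean of two replicates above 20%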;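 also: 0% = compound-free wells with enzyme and 100% = wells lacking proteasome; stock transfer was 100 nL into about 20 µL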
Target sequence (Q9Y5K5 whole entry, looked up): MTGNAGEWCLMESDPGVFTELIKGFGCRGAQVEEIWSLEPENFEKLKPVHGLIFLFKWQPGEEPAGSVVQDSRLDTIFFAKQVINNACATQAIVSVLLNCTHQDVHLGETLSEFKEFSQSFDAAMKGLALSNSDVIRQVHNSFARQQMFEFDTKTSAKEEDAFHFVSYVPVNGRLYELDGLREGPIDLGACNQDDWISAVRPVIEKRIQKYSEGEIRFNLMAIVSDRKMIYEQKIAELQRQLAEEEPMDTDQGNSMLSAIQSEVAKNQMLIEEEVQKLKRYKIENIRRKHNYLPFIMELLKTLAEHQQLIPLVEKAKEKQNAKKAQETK
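Signal – fluorescence, ex 355 nm, em 460 nm · System – Proteasome-bound UCH37 · Input – 0.15 nM proteasome as dispensed · Timing – 30 min preincubation with enzyme, 25 min cleavage at room temperature · Read-out basis – percent inhibition of cleavage signal versus uninhibited and no-proteasome wells · Medium – Tris-HCl pH 7.4 with ATP-MgCl2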
Ecoli rRNA inh – selective bacterial rRNA inhibition in E. coli | GFP signal change (wild-type ribosome), % (no concentration beside the values) | E. coli WT GFP vs humanized-ribosome RFP mutants, fluorescence, 24 h; stronger effect = lower value; DMSO median 0, no signal -100 | hit rate 1.6% among 350,000;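 active = significant combined selectivity score with lowered wild-type GFP, culture density cut under 30%, mutant RFP and density less affected; inactive = any of these conditions unmet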; also: one replicate is shown; some compounds called inactive have numbers as strong as hits
T cruzi inh – T. cruzi replication inhibition; T. cruzi beta-gal in NIH3T3, luminescence, 90 h; inhibition, % (concentration not given with the values); hit rate 1.4% among 300,000; AID 1885;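 active = mean inhibition across valid replicates above about 55%, limit read from the data; inconclusive = mean below that limit but half or more replicates reach it; inactive = mean below it, under half of replicates reach it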;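 also: signal also drops with host cell toxicity which is not excluded here; 0% = plate median of DMSO wells and 100% = zero luminescence signal; higher percent means less beta-gal luminescence so fewer parasites; stock transfer was 50 nL into about 50 µL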
FGF22 binding – FGF22 (human) thermal shift binding; hit rate 1.5% among 340,000; Q9HCT0; recombinant FGF22 thermal shift, SYPRO orange fluorescence; percent of sucrose octasulfate shift, DMSO zero; AID 651658; calls only at 9.99 µM;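 active = melting point raised past a set limit in the mean and every replicate; inconclusive = no clear call; three in four hits are not shown here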
Target sequence (Q9HCT0 whole entry, looked up): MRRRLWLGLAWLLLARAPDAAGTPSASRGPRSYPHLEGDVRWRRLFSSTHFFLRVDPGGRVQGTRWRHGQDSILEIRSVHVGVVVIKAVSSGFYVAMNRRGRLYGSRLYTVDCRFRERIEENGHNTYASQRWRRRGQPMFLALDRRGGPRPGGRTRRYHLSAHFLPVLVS
A1 inh – inhibitors of the anti-apoptotic protein A1, read as caspase activation; hit rate 0.066% among 330,000; AID 2462; caspase activation, % (no concentration beside the values); MEF A1-2A-BIM cells, Caspase-Glo 3/7 luminescence, 3 h; percent of clofoctol response, vehicle zero;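 active = over half of replicate activation scores above 10%, or exactly half above 10 with the replicate mean above 10; inconclusive = replicate mean below 10 yet half the replicates above 10; inactive = over half of replicates below 10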;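 also: wells of about 30 µL received 50 nL stock; many hits fall short of the cut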
Ecoli rRNA inh OD600 – further read-out of Ecoli rRNA inh, marked with its call; OD600 change, %; measured here: OD600 growth;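 optical density of the mix in the first replicate; 0 = DMSO median and -100 = no signal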
Ecoli rRNA inh RFP – second read-out of Ecoli rRNA inh, no call of its own (marks repeat the call); RFP signal change, %; measured here: RFP humanized mutant strains;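 first replicate; 0 = DMSO median and -100 = no signal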
An asterisk follows results filed as active; i = inactive; ? = inconclusive; . = no result given. Some of the compounds tested (hit frequency here may not be typical).

SMILES	E coli growth	Beta apoptosis	MLL AF4-AF9 inh	UCH37 DUB inh	Ecoli rRNA inh	Ecoli rRNA inh OD600	Ecoli rRNA inh RFP	T cruzi inh	FGF22 binding	A1 inh
CCCCC(=O)Nc1ccc(NC(=O)C(C)C)cn1	0.72	-3	.	5.4	.	.	.	-10	.	-0.2
CCOc1ccc(NC(=O)CN(c2ccc(OC)cc2)S(=O)(=O)c2cccs2)cc1	0.7	-3	-2.7	3.2	5	8	-3.1	.	i	-0.3
CC(=O)[C@H]1CC[C@H]2[C@@H]3CCC4=CC(=O)CC[C@]4(C)[C@H]3[C@H](O)C[C@]12C	.	.	1.6	5.4	-7	-16	3.2	8	i	1.5
Cc1ccc(Cn2c(C(CO)Nc3nc(-c4ccc(F)cc4)cs3)nc3ccccc32)cc1 (centres undefined)	0.7	-4	.	1.4	.	.	.	34	.	2.9
CCCNc1nc(-c2cc(-c3ccc(Cl)cc3)on2)cc(C(C)C)n1	0.71	3	.	-2.0	3	2	-1.0	-15	i	-0.1
CSc1sc(C(=O)O)c(C)c1C(C)=O	0.66	3	.	2.7	.	.	.	-15	.	-0.4
Cc1cc(C)c(S(=O)(=O)NCC(c2cccnc2)N2CCN(Cc3ccccc3)CC2)c(C)c1 (centres undefined)	0.71	-2	9.1	5.3	0	-7	11	48	i	-0.2
CCCN(CCC)CCCNC(=O)c1cn(CC)c2ccc(S(=O)(=O)N3CCc4ccccc4C3)cc2c1=O	0.69	4	5.0	3.1	-8	-13	-0.2	28	i	0.2
COc1ccc(NS(=O)(=O)c2cccc(C(=O)Nc3ccccc3C(=O)O)c2)cc1	0.71	-9	2.7	2.0	-8	-12	2.0	-4	i	2.0
CCOc1ccccc1/C=N/n1c(C2CCCCC2)n[nH]c1=S	.	-2	-3.6	.	5	2	-0.4	3	i	0.5
CC(=O)Nc1cccc(NC(=O)Cc2ccc3ccccc3c2)c1	0.67	-3	-9.7	0.7	8	-1	0.1	-11	i	-0.4
COc1ccc(S(=O)(=O)NCC(c2cccnc2)N2CCN(Cc3ccccc3)CC2)cc1 (centres undefined)	0.68	7	4.1	5.3	5	-4	-0.9	55*	i	-0.7
Cc1ccc(Cc2cncc(O)c2)cc1S(=O)(=O)O	0.73	-5	.	1.8	.	.	.	-10	.	0.5
CCOc1ccc(N2CC(C(=O)NCCc3ccc(S(N)(=O)=O)cc3)CC2=O)cc1 (centres undefined)	0.66	-2	-0.4	-0.3	8	13	-1.2	-4	i	0.4
Cc1ccccc1C(N)c1ccncc1 (centres undefined)	0.64	0	-3.6	1.7	5	8	-1.8	-6	i	0.3
CS(=O)(=O)c1ccc(C(=O)OCc2nnc(-c3ccccc3)o2)cc1[N+](=O)[O-]	0.66	.	-0.8	5.3	1	3	-4.7	76*	.	.
CC(=O)c1ccccc1C(=O)N1CCCC(CNC(=O)c2ccccc2Cl)C1 (centres undefined)	0.68	-1	-2.2	1.7	4	9	0.7	-13	i	0.5
COC(OC)C1Nc2ccccc2C(=O)N1c1ccc(F)cc1 (centres undefined)	0.61	.	-13	-88	0	5	-0.2	.	i	.
O=C1c2ccccc2C(=O)N1Cc1ccccn1	0.68	-4	0.6	-2.2	14	20	2.2	3	i	0.3
COc1ccc(C(=O)N2CC(=O)N(CCc3ccccc3)C(=O)C2)cc1OC	0.69	-2	.	5.7	.	.	.	.	.	-0.6
CCCn1ncc(CN2CCC(n3nccc3NC(=O)c3ccccc3OC)CC2)c1C	0.69	0	-4.2	-1.0	8	7	-1.3	17	i	1.6
CCn1cnc2cc(NCc3ccc(OC)cc3)ccc21	0.66	-3	.	-7.5	.	.	.	12	.	-0.8
O=c1[nH]ccc2c(O)cccc12	0.69	-6	-2.7	-3.8	.	.	.	-6	i	-0.3
Cc1nc2ccc(NC(=O)Cc3ccc4c(c3)OCCO4)cc2s1	0.69	-5	.	-0.8	.	.	.	3	.	0.2
CC1=C(C#N)C(c2cccnc2)C2=C(CCCC2=O)N1 (centres undefined)	0.74	2	.	i	.	.	.	.	.	0.5
CN(C)S(=O)(=O)c1ccc(NC(=O)CN2CCN(C(c3ccccc3)c3ccccc3)CC2)cc1	0.67	-7	.	1.9	.	.	.	32	.	-0.2
O=C1O[C@@H](c2ccc(O)cc2)Cc2cccc(O)c21	0.8	-5	-5.0	1.3	-5	-1	-0.5	.	i	-7.3
CCOc1ccc(Nc2oc(-c3ccccc3Cl)nc2C#N)cc1	0.76	6	.	-37	.	.	.	13	.	.
COc1ccc(CNC(=O)CN(Cc2ccc(Cl)cc2)S(C)(=O)=O)cc1	0.72	-1	.	3.2	.	.	.	23	.	0.5
CCOC(=O)c1c(N)sc2c(OCC)c(Br)ccc12	0.7	10	-31	2.8	-55	-79	-20	39	i	-0.2
CCc1c(O)nc(SCC(=O)NCc2ccco2)[nH]c1=O	0.71	-4	.	2.6	.	.	.	-11	.	0.9
COC(=O)C1=C(COc2ccc(C=O)cc2OC)NC(=O)NC1c1cc(C)ccc1C (centres undefined)	0.67	5	-3.5	0.5	3	9	-4.5	1	i	1.3
CCO[C@H]1OC(C(=O)N2CCOCC2)=C[C@@H](c2ccc(Br)cc2)[C@@H]1CCCO	.	-7	1.1	4.5	0	11	0.2	4	i	0.3
Cc1ccsc1/C=C(\C(=O)c1ccc(OC(C)C)cc1)c1nc2ccccc2o1	.	3	16	4.8	11	7	2.1	68*	i	0.9
CC(C)(C)OC(=O)C[C@H]1C/C=C\C[C@@H](CC(=O)N[C@@H](CO)Cc2ccccc2)C(=O)NCCOC1=O	.	2	.	-2.0	5	3	-1.0	.	i	1.3
Cc1cc(O)c(C(C)C)cc1C1(c2cc(C(C)C)c(O)cc2C)OC(=O)c2ccccc21	.	46	1.1	.	1	15	-0.8	77*	i	-0.5
OC(CNc1ccccc1)Cn1ccc2ccccc21 (centres undefined)	0.69	-5	4.3	2.0	2	3	6.9	-8	i	0.8
COCCNc1nc2c(c(=O)[nH]c(=O)n2C)n1CCCc1ccccc1	0.62	-8	-0.1	3.8	-2	1	-0.7	12	i	1.5
O=C(/C=C/c1c(Cl)cccc1Cl)NCCc1ccccc1	0.73	5	.	1.6	.	.	.	15	.	0.5
O=c1c([N+](=O)[O-])c(O)c2cccc3c2n1CCC3	0.72	-3	-6.6	7.9	-5	-14	-3.5	1	i	0.6
CCC(=O)C1CCCN(C(=O)c2ccc(OC3CCN(C(=O)c4cccnc4)CC3)cc2)C1 (centres undefined)	0.68	1	2.6	2.5	8	1	1.6	5	i	-0.1
CCN1CCN(c2ccc(NC(=O)c3ccccc3F)cc2Cl)CC1	0.7	0	4.0	4.1	-3	-4	-1.7	-2	i	-3.0
CCS(=O)(=O)NCC(c1cccnc1)N1CCN(c2ccccc2F)CC1 (centres undefined)	0.69	5	.	-3.6	.	.	.	45	.	0.4
COc1ccc(N2CCN(C(=O)CCc3cc(OC)c(OC)c(OC)c3)CC2)cc1	0.64	-5	1.2	3.6	2	11	-2.6	0	i	0.2
O=C(Cc1cccc(NC(=O)C2CCCN(C(=O)c3ccccc3)C2)c1)Nc1ccc(C(=O)N2CCOCC2)cc1 (centres undefined)	0.7	.	2.1	0.8	7	11	3.2	.	i	.
O=C(O)Cn1c(CC(=O)N2CCCC2)nc2ccccc21	0.65	-9	7.8	-0.8	9	12	6.8	-4	i	0.2
C=CCn1c(SCC#N)nnc1-c1ccc2ncccc2c1	0.7	.	?	3.0	5	-11	-0.6	6	i	0.0
CCN(CC(=O)NCCc1ccc(Cl)cc1)Cc1nc2ccccc2c(=O)[nH]1	0.7	-2	-0.1	3.4	-13	-1	4.5	5	.	-0.5
COc1ccc(-c2nc(C#N)c(N3CCc4ccccc4C3)o2)cc1OC	0.69	.	.	-256	.	.	.	24	.	-0.6
CCC(=O)NCC(=O)OCC(=O)c1ccccc1	0.69	-3	.	1.5	.	.	.	-3	.	0.4
COc1ccccc1-n1c(SCC(=O)NC(C)(C)C)nc(O)c(Cc2ccccc2)c1=O	0.71	-9	.	-1.8	.	.	.	-12	.	0.0
Cc1ccc(-n2c(O)c(C=NC3CCS(=O)(=O)C3)c3ccccc3c2=O)c(C)c1 (centres undefined)	0.67	-1	2.7	12	1	9	-2.2	6	i	0.2
CC(OC(=O)CNC(=O)C12CC3CC(CC(C3)C1)C2)C(=O)Nc1ncc(Cl)cc1Cl (centres undefined)	0.67	-1	.	-6.5	.	.	.	3	.	-0.5
COc1ccc(C(=O)O)cc1NC(=S)NC(=O)/C=C/c1ccc(C(C)C)cc1	0.68	-10	5.0	7.0	-6	-7	-1.5	-7	i	-0.4
COc1ccc(C(=O)OCC(=O)Nc2cccc(C(C)=O)c2)cc1OC	0.69	-6	0.9	3.1	-4	-12	-1.3	0	i	1.3
COc1ccc(Nc2nc(-c3ccccc3)cs2)cc1	0.74	6	.	-0.4	.	.	.	?	.	-5.8
CN(C)S(=O)(=O)N1CCC(Oc2cccc(C(=O)N3CCCCCC3)c2)CC1	0.7	-1	-0.9	2.4	.	.	.	2	i	0.4
CCOc1ccc(NC(=S)c2ccc3ccccc3n2)cc1	0.71	4	-5.2	8.3	17	11	5.1	-21	i	-1.0
CC(C)CCNC(=O)c1ccc(Cl)c(NC(=O)Cc2ccccc2)c1	0.68	4	0.7	1.4	7	10	-0.8	7	i	0.4
Cc1cc(C)nc(NS(=O)(=O)c2ccc(N/C=C\C(=O)c3ccc(Cl)cc3)cc2)n1	0.7	-4	.	-4.9	.	.	.	-4	.	-0.1
Carrying on.
SMILES	E coli growth	Beta apoptosis	MLL AF4-AF9 inh	UCH37 DUB inh	Ecoli rRNA inh	Ecoli rRNA inh OD600	Ecoli rRNA inh RFP	T cruzi inh	FGF22 binding	A1 inh
CCN(c1cccc(C)c1)c1nc2ccsc2c(=O)s1	0.69	1	.	-30	.	.	.	-5	.	0.6
COc1ccc(C(CNC(=O)c2ccc(-c3ccccc3)cc2)N(C)C)cc1OC (centres undefined)	0.7	-3	10	3.9	-4	-9	4.2	23	i	0.6
CC(=O)n1nc(-c2ccc(C)cc2)nc1NCc1ccc(F)cc1	0.66	.	-5.1	0.3	6	-4	-4.0	0	i	.
CCN(CC)CCNC(=O)c1cc2ccccc2nc1Cl	0.68	-1	-2.3	-5.3	20	14	0.0	-6	i	0.6
CCOC(=O)c1cccc(NC(=O)c2ccccc2C)c1	0.67	-5	-2.1	0.1	.	.	.	8	i	0.4
Cc1nc(SCC(=O)Nc2ccc3c(c2)OCCO3)nc(C)c1C	0.7	.	-9.2	-3.5	-18*	6.0*	0.1*	-13	i	0.7
COc1c(Cl)cc(C(=O)NCc2ccco2)cc1Cl	.	3	-2.1	.	-12	-10	-1.6	-5	i	0.4
